Bioassay records deposited in PubChem BioAssay by ICCB-Longwood Screening Facility, Harvard Medical School.
HCMV NEC inh – cytomegalovirus nuclear egress complex inhibition | HTRF UL50-UL53 interaction, normalized percent inhibition | 0.15% of 190,000 active | AID 1918969 | inhibition, % (test concentration not listed);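 active means both replicates at 50% or more, plus weaker picks with an unusually low signal ratio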;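 further: stock transfer was 100 nL into about 20 µL; 0% = negative control wells and 100% = wells with untagged competitor protein; inactives centre near -12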
Sa growth 42C – S. aureus growth inhibition. 0.53% of 170,000 active. S. aureus RN4220 growth, OD600, 20 h, 42 °C; active compounds read low. relative growth, % (no concentration beside the values). AID 720641;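 active means growth at 42 °C up to 50% and 20 or more points under that at 30 °C, or under 10% at both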;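 further: 300 nL library stock went into each well; scaled to the means of positive and negative controls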
GIV Gai3 FP – GIV-Galpha-i interaction inhibition; P08753; AID 1224905; 0.42% of 210,000 active; Galpha-i3/FITC-GIV peptide fluorescence polarization, 90 min; active compounds read low; scaled: aluminum fluoride 0%, vehicle 100%; percent of control (FP), % (no concentration beside the values);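 active means replicate mean at 85% of control or lower, very high polarization wells dropped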;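 further: wells of about 15 µL received 100 nL stock; the first replicate is given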
Target sequence (P08753 whole entry, looked up): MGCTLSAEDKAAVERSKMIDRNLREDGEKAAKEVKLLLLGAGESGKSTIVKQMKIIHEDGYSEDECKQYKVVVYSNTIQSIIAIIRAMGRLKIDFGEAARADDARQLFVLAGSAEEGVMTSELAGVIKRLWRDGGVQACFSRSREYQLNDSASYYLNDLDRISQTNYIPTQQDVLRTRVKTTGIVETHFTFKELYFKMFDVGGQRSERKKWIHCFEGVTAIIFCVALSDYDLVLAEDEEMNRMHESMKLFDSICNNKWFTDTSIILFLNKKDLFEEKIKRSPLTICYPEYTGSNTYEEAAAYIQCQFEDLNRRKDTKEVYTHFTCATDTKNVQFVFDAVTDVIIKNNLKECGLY
Sa growth 42C second temp – second read-out of Sa growth 42C, no call of its own (marks repeat the call); relative growth, %; measured here: growth at 30 °C;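 optical density after 20 h as mean of two plates; 100% = untreated growth and lower means inhibition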
Starred values were filed as active, the others as inactive; . = no result given; & = joins results of further samples. Compounds were not picked by outcome; any-hit rate near 0.83%.

SMILES	HCMV NEC inh	Sa growth 42C	Sa growth 42C second temp	GIV Gai3 FP
Cc1ccc(NC(C)C(=O)N/N=C/c2ccc(N(C)C)cc2)cc1 (stereo unspecified)	-35	86	83	94
Cc1ccc(Sc2cc3c(cc2NS(=O)(=O)c2ccc(F)cc2)n(C)c(=O)n3C)cc1	-24	.	.	104
O=C(Cn1c(=O)cnc2ccccc21)NC1CCCc2ccccc21 (stereo unspecified)	-22	98	92	.
COc1cccc(CNC(=O)C2CCCN(S(=O)(=O)N(C)c3ccc(F)cc3)C2)c1OC (stereo unspecified)	.	110	85	105
Cc1cc(C(=O)COc2ncnc3ccccc23)c(C)n1C	-1	95	96	.
CCOC(=O)C1CCCN(S(=O)(=O)c2ccc3c(c2)N(C)C(=O)CC(=O)N3C)C1 (stereo unspecified)	6	103	90	105
CC(C)Cn1c(=O)c2sccc2n2c(CCCC(=O)O)nnc12	-8	92	85	111
CCN(CCC#N)C(=S)Nc1cc(C(F)(F)F)cc(C(F)(F)F)c1	-39	98	86	104
Cc1nnsc1-c1nc(CSc2ccc(Cl)cc2)no1	-5	95	84	98
COc1ccc(CC(=O)N(C)C)cc1	7	78	95	.
COc1ccc(-c2c(C(F)(F)F)oc3c(CN4CCN(C)CC4)c(O)ccc3c2=O)cc1OC	-20	.	.	96
CCOCCCN1C(=O)CN(C2CCCCCC2)C(=O)C1c1ccc(OCC)c(OC)c1 (stereo unspecified)	.	103	96	100
Cc1nc(SCc2ccc(Cl)cc2)c(C#N)c(C)c1Cl	-4	106	95	107
Cc1cccc(-c2nn3c(=O)cc(N4CCN(C(=O)Nc5ccccc5Cl)CC4)nc3s2)c1	-2	.	.	106
COCCNC(=O)CSc1nc(-c2ccc(F)cc2)[nH]c1-c1ccc(Cl)cc1	-7	112	81	98
COc1ccc(OC)c(NC(=O)C2=C(C)C(=O)OC23CCN(C(C)C)CC3)c1	.	101	93	104
CC(C)(C)Nc1nc(OCC#N)nc(N2CCOCC2)n1	16	95	69	104
CN/C(=C\[N+](=O)[O-])NCCSCc1csc(CN(C)C)n1	-45	92&92	90&92	.
Nc1cc(=O)[nH]c(SCc2ccccc2CSc2nc(N)cc(=O)[nH]2)n1	16	94	111	109
COc1cc(C2C(C(=O)Nc3ccc(C)cc3)=C(C)Nc3nnnn32)ccc1OCc1ccccc1 (stereo unspecified)	-9	.	.	103
Cc1ccc2nc(NCCCN3CCOCC3)c3nncn3c2c1	11	102	100	102
Cc1cnc(C(=O)NCc2c(Cl)cccc2Oc2ccccc2)cn1	-1	87	91	96
CCC(C)NC(=O)CSc1nc2ccsc2c(=O)n1NC(=O)c1ccccc1 (stereo unspecified)	.	114	91	101
O=C(CN1C2=NCCCN2c2ccccc21)c1ccco1	.	102	86	99
COc1ccc(C(=O)Nc2ccc3nc4c(c(Nc5ccc(OC)c(OC)c5)c3c2)CCCC4)c(OC)c1	-31	105	82	104
(further entries)
SMILES	HCMV NEC inh	Sa growth 42C	Sa growth 42C second temp	GIV Gai3 FP
COC(=O)C1=C(C)NC(=O)/C1=C\c1cccc2ccccc12	.	83	82	113
CCN(CC)S(=O)(=O)c1ccc2[nH]cc(C(=O)NCc3ccc(F)cc3)c(=O)c2c1	2	84	88	97
O=S(=O)(c1ccc(-n2cnnn2)cc1)N1CCN(c2cccc(Cl)c2)CC1	-7	87	91	96
COC(=O)c1ccc(Cl)c(-c2ccc(/C=N/n3cnnc3)o2)c1	-1	85	91	.
CCCNS(=O)(=O)c1ccc2[nH]c(=O)[nH]c2c1	8	105	80	99
OCCN(CCO)c1ncnc2c1cnn2-c1ccc(F)cc1	.	105	96	110
CCOC(=O)c1cc(-c2ccc(OC)c(S(=O)(=O)N3CCc4ccccc43)c2)on1	-45	113	85	134
O=C1CC(c2ccc3c(c2)OCO3)CC2=C1C(c1cc3c(cc1Br)OCO3)Nc1ccccc1N2 (stereo unspecified)	-16	.	.	98
O=C(Nc1cccnc1Sc1ccc(Cl)cc1)C1CC1	-4	112	103	108
COC(=O)C1=C(N)OC2=C(C(=O)CCC2)C1c1ccc(OCc2ccccc2F)cc1 (stereo unspecified)	.	105	69	101
COc1ccc(Cn2c(CO)cnc2SCc2ccccc2)cc1	.	107	91	101
COc1ccc(NC(C)=O)cc1NC(=O)c1c(-n2cccc2)sc(C)c1C	3	101	97	.
Cc1ccc(CNC(=O)CCSCc2cccc(F)c2)cc1	-3	108	96	106
O=C(O)C1CCCCCN1 (stereo unspecified)	-20	100	107	100
O=C(Nc1ccccc1)N1CCN(C(=O)C2CCCO2)CC1 (stereo unspecified)	-4	92	108	108
CC(C)(C)C1=CC(C(C#N)C#N)c2ccccc2O1 (stereo unspecified)	-35	104	59	.
Cc1cccc(C)c1NC(=O)C1CCN(S(=O)(=O)c2ccccc2)CC1	-6	96	93	99
O=C(Cc1noc2ccccc12)N1CCN(c2ccccc2)CC1	-20	91	80	107
Cc1cccc(NC(=O)c2sc3nc4c(cc3c2N)CCCCCC4)c1C	4	108	101	110
CCCS(=O)(=O)Nc1ccccc1C(=O)NCc1ccccc1	0	168	91	.
c1nc(SCc2ccc3c(c2)OCO3)c2[nH]cnc2n1	-3	100	80	.
CCOC(=O)C1CCN(C(=O)CN2CCSc3ccccc32)CC1	-28	.	.	106
CN(c1ccccc1C(=O)O)S(=O)(=O)c1ccc2[nH]c(=O)[nH]c2c1	.	80	88	100
CN(C)NC(=S)NCc1ccc(F)cc1	-15	98	85	105
CCN(CC)C(=O)c1ccc(CS(=O)(=O)c2ccccc2C)o1	.	78	78	104

Of the compounds above, 8 have a Cl atom:
SMILES	HCMV NEC inh	Sa growth 42C	Sa growth 42C second temp	GIV Gai3 FP
Cc1nnsc1-c1nc(CSc2ccc(Cl)cc2)no1	-5	95	84	98
Cc1nc(SCc2ccc(Cl)cc2)c(C#N)c(C)c1Cl	-4	106	95	107
Cc1cccc(-c2nn3c(=O)cc(N4CCN(C(=O)Nc5ccccc5Cl)CC4)nc3s2)c1	-2	.	.	106
COCCNC(=O)CSc1nc(-c2ccc(F)cc2)[nH]c1-c1ccc(Cl)cc1	-7	112	81	98
Cc1cnc(C(=O)NCc2c(Cl)cccc2Oc2ccccc2)cn1	-1	87	91	96
O=S(=O)(c1ccc(-n2cnnn2)cc1)N1CCN(c2cccc(Cl)c2)CC1	-7	87	91	96
COC(=O)c1ccc(Cl)c(-c2ccc(/C=N/n3cnnc3)o2)c1	-1	85	91	.
O=C(Nc1cccnc1Sc1ccc(Cl)cc1)C1CC1	-4	112	103	108

Continued.
SMILES	HCMV NEC inh	Sa growth 42C	Sa growth 42C second temp	GIV Gai3 FP
CC1(C)Cc2c(cnn2-c2ccc(F)cc2)-c2nc3ccccc3nc21	-16	100	86	.
Cc1cc(C)n2cc(CSc3nc4ccc([N+](=O)[O-])cc4[nH]3)nc2n1	-20	.	.	105
Cn1c(=O)oc2cc(S(=O)(=O)N3CCc4ccccc43)ccc21	.	97	97	105
CCOC(=O)c1sc(NC(=O)CSC2=NN3CCCC(=O)N=C3S2)c(C(=O)OCC)c1C	-34	88	81	101
CCCCC1(C(=O)OCC)CC(CN2CCOCC2)OC1=O (stereo unspecified)	4	104	87	101
O=C(CC(=O)N1CCCCCC1)Nc1ccc2nc3n(c(=O)c2c1)CCCCC3	0	124	99	105
CC(C)Oc1cccc(NC(=O)Nc2ccccc2)c1	-18	96	81	103
CCOC(=O)C1CCCN(C(=O)CSc2ccccc2Cl)C1 (stereo unspecified)	8	65	87	.
COc1cccc(NC(=O)N2CCN(c3nnnn3-c3ccccc3)CC2)c1	-20	111	78	103
O=C1CC(c2ccccc2Cl)Cc2c1cnn2-c1nc2ccccc2s1 (stereo unspecified)	.	99	100	95
COc1ccccc1/C(O)=C/c1nc2cc3c(cc2[nH]c1=O)n(C)c(=O)n3C	.	100	84	213
CN(C)C(CNC(=S)Nc1ccccc1)c1cccnc1 (stereo unspecified)	.	107	92	107
Cc1ccc(NCC2OCc3ccccc3CO2)cc1	-18	92	93	101
CN(C)C(=O)CN1CCNCC1	6	97	99	.
CCCn1c(C)cc(C(=O)COn2nnc3ccc(C(=O)OC)cc32)c1C	-41	79	84	.
O=C1CN(C(=O)c2ccccc2C(=O)O)c2ccccc2N1	-20	111	86	.
CCOC(=O)c1oc2ccccc2c1COC(=O)c1ccccn1	-14	100	93	.
O=C1CC(N2CCOCC2)C(=O)N1C1CCCC1 (stereo unspecified)	-18	96	101	107
COc1ccc(CSc2nc(C)cc(=O)[nH]2)cc1Br	-20	102	89	112
COC(=O)c1ccc(NC(C)=O)c(C(=O)OC)c1	-17	108	85	100
Cc1ccccc1NC(=O)CSc1nc2c(oc3ccccc32)c(=O)n1-c1ccccc1F	-20	93	85	99
Cc1cc(C(=O)CSc2n[nH]c(COc3ccc(Cl)cc3)n2)c(C)n1-c1nccs1	-17	84	88	.
COc1ccc(S(=O)(=O)Nc2cc3c(cc2N2CCOCC2)n(C)c(=O)n3C)cc1	10&-21	101	98	108&100
O=C(CSc1nc(=O)n(C2CCS(=O)(=O)C2)c2c1CCC2)c1ccc(Br)cc1 (stereo unspecified)	-19	.	.	100
COC(=O)c1ccccc1NC(=O)N1CCN(c2nnc(C)c3c(C)n(-c4ccccc4)nc23)CC1	4	.	.	106

An excerpt of these results, with bars between the fields:
molecule | HCMV NEC inh | Sa growth 42C | Sa growth 42C second temp | GIV Gai3 FP
COc1ccc(S(=O)(=O)Nc2cc3c(cc2N2CCOCC2)n(C)c(=O)n3C)cc1 | 10&-21 | 101 | 98 | 108&100
Cc1ccccc1NC(=O)CSc1nc2c(oc3ccccc32)c(=O)n1-c1ccccc1F | -20 | 93 | 85 | 99

New compounds follow
SMILES	HCMV NEC inh	Sa growth 42C	Sa growth 42C second temp	GIV Gai3 FP
CCc1ccc(S(=O)(=O)c2nnn3c2nc(N2CCCC2)c2sccc23)cc1	.	99	90	111
CN(c1ccc(F)cc1)S(=O)(=O)N1CCCC(C(=O)NCc2cccc(Br)c2)C1 (stereo unspecified)	.	108	79	101
CCc1nnc(NS(=O)(=O)c2ccc(NC(=O)CSc3nc4ccccc4s3)cc2)s1	-12	.	.	97
CCOC(=O)c1c(C)[nH]c(C(=O)N2CCCC(C(=O)NCCN3CCN(CC)CC3)C2)c1C (stereo unspecified)	-11	.	.	95
COc1cc(CNC(=O)c2ccc3cnn(Cc4cccc(Cl)c4)c3c2)cc(OC)c1	-27	.	.	104
Clc1cccc(N2CCN(c3nc4ccccc4n4cnnc34)CC2)c1	-33	95	83	106
Cc1cc2nc(Nc3ncc4c(n3)CC(c3ccco3)CC4=O)nc(C)c2cc1C (stereo unspecified)	5	65	91	105
COc1ccc2c(c1)C(C(C#N)C#N)C(C#N)=C(N)O2 (stereo unspecified)	-61	88	67	105
CC1CCCN(C(=O)c2ccc(Cl)c(S(=O)(=O)N3CCCCCC3)c2)C1 (stereo unspecified)	2	63	92	.
COc1ccc(CNC(=O)CN2C(=O)CC(c3ccc(C)c(C)c3)=Nc3ccccc32)cc1	.	91	91	100
CCN(CC)CCCNc1ncnc2c1cnn2-c1ccc(C)c(C)c1	.	118	86	107
CCS(=O)(=O)N1CCCc2ccc(NC(=O)CN3C(=O)c4ccccc4C3=O)cc21	-23	.	.	114
O=C(Cc1ccccc1)Nc1sc2c(c1C(=O)Nc1ccccc1Cl)CCCC2	-15	94	90	103
Cc1oc2c(cc(NS(=O)(=O)c3ccc(Cl)c([N+](=O)[O-])c3)c3ccccc32)c1C(=O)OC(C)C	-14	.	.	102
COC(=O)NC1c2ccccc2Oc2ccccc21	0	127	87	96
CS(=O)(=O)c1ccccc1C(=O)O	12	96	88	109
C/C(=N\NC(=S)NC1CCCCC1)c1ccc(O)cc1	-10	106	97	.
Cn1c(=S)[nH]c2sc3c(c2c1=O)CCC(C(C)(C)C)C3 (stereo unspecified)	9	70	55	.
O=c1oc2ccccc2cc1C1=NC(=S)NC(c2ccc3c(c2)OCO3)C1 (stereo unspecified)	-98	82	79	.
Cc1cccc2c(=O)cc(CSCC(=O)Nc3ccc(Cl)cc3)[nH]c12	.	109	96	98
COc1ccc2nc(SCC(=O)NCC(F)(F)F)[nH]c2c1	-4	104	89	.
COc1ccc(-c2nc(CSc3nc(C(F)(F)F)cc(=O)[nH]3)c(C)o2)c(OC)c1	-18	.	.	107
CCOC(=O)c1c(-c2ccccc2)cn2ccccc12	-18	.	.	102
O=C(Nc1ccc(NC(=O)c2cccs2)cc1)c1cccs1	-14	102	77	102
COc1ccccc1Oc1nnnn1-c1ccccc1	2	115	79	106
Continued:
SMILES	HCMV NEC inh	Sa growth 42C	Sa growth 42C second temp	GIV Gai3 FP
NC(=O)c1c(NC(=O)c2noc3c2CCCC3)sc2c1CCCC2	-16	88	83	97
O=C(NCCN1CCN(Cc2ccc(Br)cc2)CC1)C(=O)Nc1ccccc1	-3	.	.	106
Cc1ccc(-c2nnc(SCC(=O)c3ccc(C)cc3C)o2)cc1	6	98	93	.
N#CCOC(=O)c1sc2ccccc2c1Cl	-12	91	91	.
O=C(O)CCCSc1ccccc1	1	.	.	102
COc1ccc(OCC(O)CNS(=O)(=O)c2cccs2)cc1 (stereo unspecified)	-18	104	84	104
O=C(NCc1ccccc1)NC1(C(=O)O)CCCCC1	-19	112	90	103
CCOC(=O)N1CCN(C(=O)Cn2nc(CC)n3c(cc4sc(C)cc43)c2=O)CC1	-8	94	93	101
CCn1ccc(C(=O)Nc2cc(Cl)ccc2Cl)n1	-22	99	92	105
CCCCN(CC)c1nc(C)nc2c1c(C)cn2-c1c(C)cc(C)cc1C	13	.	.	107
